Source: PubChem BioAssay
Rango-impB inh: qHTS Assay for Inhibitors of Rango (Ran-regulated importin-beta cargo) - Importin beta complex formation. Importin subunit beta-1 (Homo sapiens), Q14974. Rango CFP/YFP FRET sensor + importin beta, 45 min. Potency, µM (highest dose often 92.2 µM), without a hit: at the top dose inhibition of complex formation. 340,000 tested, 0.031% active; active = rising FRET ratio curve, often small or poorly fitted; inconclusive = mostly compound fluorescence or quenching in the first reads; inactive = flat curves in all reads;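 also: potency is read from the fitted curve at half-maximal effect; 0% = DMSO wells and 100% = buffer wells lacking importin beta; nearly all actives have a fitted effect of over 15% in size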
Target sequence (Q14974 whole entry, looked up): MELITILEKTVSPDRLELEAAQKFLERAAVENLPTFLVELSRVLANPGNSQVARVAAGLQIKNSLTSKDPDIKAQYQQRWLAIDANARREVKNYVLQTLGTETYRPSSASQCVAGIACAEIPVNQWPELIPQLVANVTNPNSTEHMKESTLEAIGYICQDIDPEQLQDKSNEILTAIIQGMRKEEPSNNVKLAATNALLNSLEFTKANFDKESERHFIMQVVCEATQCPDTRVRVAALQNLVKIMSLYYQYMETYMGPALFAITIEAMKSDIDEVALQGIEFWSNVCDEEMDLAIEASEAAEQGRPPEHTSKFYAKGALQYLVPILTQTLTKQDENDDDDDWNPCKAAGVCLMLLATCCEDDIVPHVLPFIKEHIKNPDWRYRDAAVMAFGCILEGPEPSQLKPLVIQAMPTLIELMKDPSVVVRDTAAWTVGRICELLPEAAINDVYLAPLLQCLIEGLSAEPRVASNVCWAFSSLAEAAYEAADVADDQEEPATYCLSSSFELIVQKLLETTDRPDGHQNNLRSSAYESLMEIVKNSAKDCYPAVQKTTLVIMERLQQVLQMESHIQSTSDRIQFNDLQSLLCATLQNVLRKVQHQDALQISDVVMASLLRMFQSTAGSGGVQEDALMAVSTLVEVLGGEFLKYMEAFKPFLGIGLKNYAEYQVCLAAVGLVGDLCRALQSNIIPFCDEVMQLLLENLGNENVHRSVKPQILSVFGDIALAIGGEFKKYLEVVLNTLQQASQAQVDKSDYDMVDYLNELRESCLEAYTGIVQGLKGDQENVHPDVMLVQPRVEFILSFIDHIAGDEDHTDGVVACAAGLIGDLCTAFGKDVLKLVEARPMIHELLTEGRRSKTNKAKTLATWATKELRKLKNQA
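Inhibition scored from the CFP 486 nm/YFP 530 nm FRET ratio 45 min after adding 0.125 microM importin beta to 50 nM Rango biosensor preincubated 5 min with compound (room temperature, PBS with DTT, Tween-20, BSA). No-importin wells as positive control.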
Rango release inh: qHTS Assay for Inhibitors of RanGTP induced Rango (Ran-regulated importin-beta cargo) - Importin beta complex dissociation; Snurportin-1 (Homo sapiens) + GTP-binding nuclear protein Ran (Homo sapiens) + Importin …; Biochemical FRET Rango-importin beta, RanGTP-induced dissociation; Potency, µM (highest dose often 46.1 µM), without a hit: at the highest dose activity change, negative = inhibition; 340,000 tested, 0.071% active; AID 540253, 2011; active means falling FRET ratio curve, often poorly fitted, with flat reads before Ran was added; inconclusive means other falling curves, or compound fluorescence or quenching; inactive means flat or rising ratio curve;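 also: potency is read from the fitted curve at half-maximal effect; % of control where 0% means no effect; nearly all actives have a fitted effect of over 45% in size; -100% = wells without RanGTP and RCC1; the record marks most hits as doubtful in a second field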
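Recombinant Rango FRET biosensor (EYFP–snurportin 1 IBB–cerulean CFP10) at 0.1 uM premixed with 0.25 uM importin beta in PBS, 1 mM DTT, 0.02% Tween-20, 0.1% BSA. Compound added 5 min; RanGTP-RCC1 (0.6 uM Ran, 2 mM GTP, 0.2 uM RCC1) then triggers release, read at 45 min.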
miR-21 reporter: qHTS Assay for Modulators of miRNAs and/orActivators of miR-21. Potency, µM (titrated, usually from 38.3 µM), inactives show at the highest dose reporter change, positive = more light. 340,000 tested, under 10 active. HeLa miR-21 FLuc reporter, luciferase, 48 h. AID 2288, 2010; active = well fitted rising curve with a large enough effect; inconclusive = small, poorly fitted or top-dose-only effect; inactive = no such curve, though single readings can be large or run the other way;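 also: % of control where 0% means no effect; miR-21 action dims this reporter so a rising signal means less miR-21 action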
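HeLa cells stably expressing CMV-driven firefly luciferase with a downstream miR-21 binding sequence, endogenously expressing miR-21, were treated with titrations (up to about 40uM final) for 48 hours at 37 degree Celsius. Luciferase luminescence was read after lysis.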
GLA inh pH 4.5: qHTS Assay for Inhibitors of Human alpha-Galactosidase at pH 4.5. purified enzyme, 4-MU-alpha-Gal fluorescence, pH 4.5. activity change, negative = inhibition, % at 105 µM. 230,000 tested, under 10 active. AID 1467, 2008; inconclusive = small, poorly fitted or top-dose-only inhibition, or a rising curve; inactive = flat fitted curve, though single readings scatter; no compound was filed as active;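 also: 0% = full activity with enzyme and -100% = basal without enzyme; dose as in the result columns while the protocol names 77 µM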
* = called active by the depositor; ? = inconclusive; nt = no result given. An excerpt; rates above refer to the full screens.

SMILES	Rango-impB inh	Rango release inh	miR-21 reporter	GLA inh pH 4.5
COc1ccc(C(C(=O)NC2CCCCC2)N(Cc2ccco2)C(=O)CNC(=O)c2ccco2)cc1 (stereo unspecified)	?	-8.1%	nt	nt
COC(=O)c1nn(-c2ccccc2)c(Sc2ccc(Br)cc2)c1/C=N/O	2.2%	2.2%	3.4%	5.3
CC1(C)CCC(=O)N2CC[C@H]3C[C@H](OC(=O)Nc4ccccc4)C[C@@H]1[C@H]32	0.2%	14.9%	-41.0%	nt
O=C1COc2ccc(C(=O)c3ccccc3C(=O)NCc3ccccc3)cc2N1	1.9%	-20.3%	0.1%	-7.9
CC(C)c1nn(-c2cc(C(F)(F)F)ccn2)c(=O)o1	0.1%	-6.9%	-0.1%	0.0
CCOc1ccc(C(=O)NC(C(=O)NCc2ccccc2OC)C(C)C)cc1 (stereo unspecified)	0.4%	3.1%	-1.2%	-1.0
CCOc1ccc(/C=C2\NC(=S)NC2=O)cc1	?	?	2.0%	-7.5
CCN1N=C(c2cc(Cl)sc2Cl)CSC1=O	1.2%	-0.5%	-10.0%	1.4
O=C(N/N=C/c1ccccc1OC(=O)c1ccc2c(c1)OCO2)c1cccc(F)c1	-2.0%	-0.1%	-18.7%	-0.8
C=CCNC(=O)c1ccc(C2SCC(=O)N2Cc2ccccc2)cc1 (stereo unspecified)	0.0%	7.8%	-1.8%	9.5
COc1cc2c(cc1OC)C(c1ccc([N+](=O)[O-])cc1)NCC2 (stereo unspecified)	-2.6%	1.2%	-12.6%	nt
O=C(C[C@H]1C[C@H](C(=O)N2CCOCC2)[C@@]2(CCC3CCCC3)c3[nH]c4cc(-c5ccco5)ccc4c3CCN2C1=O)NCCc1ccccn1	-0.7%	?	nt	nt
N=C1/C(=C/c2cccn2Cc2ccc(Cl)cc2)C(=O)N=C2SC=CN12	?	?	-11.1%	-0.7
COc1ccc(S(=O)(=O)Nc2cccc3c2O[C@H](CN(C)Cc2ccncc2)[C@@H](C)CN([C@H](C)CO)C3=O)cc1	?	?	nt	nt
CCC[N+](C)(C)C(C)C(OC(C)=O)c1ccccc1 (stereo unspecified)	4.2%	12.9%	-1.3%	-1.8
CCOC(=O)CC(=O)CSc1nc(-c2ccccc2)cc(-c2ccccc2)c1C#N	?	-21.9%	-8.4%	-0.4
O=C(CCC1CCCCC1)NNC(=O)NC12CC3CC(CC(C3)C1)C2	4.1%	11.8%	0.2%	5.0
COc1ccccc1N(CC(=O)NCCSCc1ccc(C)cc1)S(=O)(=O)c1ccccc1	1.9%	-4.8%	26.4%	nt
Cc1nn(CC(=O)Nc2cccnc2N2CCOCC2)c(=O)c2ccccc12	nt	nt	-2.5%	-5.8
c1ccc(Cn2nnc3c(N4CCC5(CC4)OCCO5)ncnc32)cc1	0.2%	0.3%	-20.3%	-6.1
O=C(CSc1cccc(C(F)(F)F)c1)Nc1ccc(N2CCOCC2)cc1	7.4%	6.4%	nt	nt
Cn1nccc1NC(=O)c1nccnc1C(=O)O	3.1%	4.5%	-1.9%	-2.5
Cc1nc2ccc(NC(=O)Cc3cccc(F)c3)cc2s1	0.4%	0.3%	-31.8%	5.7
CCN(CC)CCSc1nnc2c3ccccc3n(CCc3ccccc3)c2n1	4.1%	12.3%	19.8%	nt
CC(C)(C)C(=O)COC(=O)c1ccc(O)cc1	4.8%	-1.0%	-10.6%	-3.8
SMILES	Rango-impB inh	Rango release inh	miR-21 reporter	GLA inh pH 4.5
CC(C)(C)OC(=O)CNC(=O)c1nc[nH]c1C(=O)NCc1ccccc1	0.9%	23.1%	6.1%	nt
O=C(NCCN1C(=O)S/C(=C\c2ccc(Cl)c(Cl)c2)C1=O)c1cnccn1	0.1%	12.9%	-0.3%	-2.2
Cc1ccc(C(=O)C=CNNC(=O)c2ccccc2)cc1	?	-11.0%	-38.4%	nt
O=C(CNC(=O)c1cccs1)NCC(=O)OCc1ccccc1Br	0.1%	0.6%	1.1%	-6.5
COc1cccc(CNC(=O)CCCCCNC(=O)N2CCn3c2nc2ccccc23)c1	-2.0%	-5.9%	-1.7%	nt
O=C(NC1CCCCC1)C1CCN(C(=O)NCc2ccccc2)CC1	-5.1%	8.0%	-0.8%	-1.2
Cc1cccc(NC(=O)C[n+]2ccccc2)c1	-7.5%	-8.6%	2.2%	nt
COc1ccccc1-n1cnnc1SCC(=O)NC1CCCC1	-1.3%	-13.5%	nt	nt
NNC(=O)c1sc(-c2ccccc2)cc1N	?	-17.5%	1.0%	0.1
CCN(CC)CCN(C(=O)c1ccc(C(=O)c2ccccc2)cc1)c1nc2ccc(OC)cc2s1	0.0%	-4.1%	-4.4%	nt
CC(=O)Nc1ccc(C(=O)OCC(=O)N(Cc2ccccc2)C(C)(C)C)cc1	-0.9%	7.5%	-2.2%	-9.1
O=C(NN=Cc1ccc([N+](=O)[O-])cc1)c1ccncc1	0.5%	-2.4%	nt	nt
O=C(CSc1nnc(COc2ccc(F)cc2)o1)N1CCCCC1	-0.9%	0.9%	-5.6%	nt
Cc1ccc(NC(=O)NCc2c(C)nn(C)c2C)cc1Cl	1.1%	-2.8%	-61.3%	-8.1
COC(=O)c1sc(-c2ccccc2)cc1NC(=O)c1ccc(OC)cc1	1.0%	-2.8%	-2.5%	10.8
CCCCOC(=O)Nc1ccc(C(N)=O)cc1	-2.0%	2.3%	-45.6%	-4.4
CCn1c(SC(C)C)nnc1-c1cc(-c2ccccc2)sc1N	-2.4%	0.3%	2.9%	-1.3
O=C(c1ccc(=O)[nH]c1)N1CCN(S(=O)(=O)c2ccccc2)CC1	-0.9%	2.6%	1.1%	nt
C[C@H]1CCC[C@@]2(O[C@H](CCO)C[C@@H](O)[C@@H]2O)O1	4.0%	0.2%	nt	nt
FC(F)(F)c1ccccc1NC(=S)Nc1cccc2cnccc12	-4.1%	-16.6%	0.3%	-10.8
OCC[C@H]1C[C@@H](O)[C@H](O)[C@@]2(CCCc3ccccc3O2)O1	-2.9%	13.2%	nt	nt
CCOCCOCCC(C(=O)O)P(=O)(c1ccccc1)c1ccccc1 (stereo unspecified)	0.7%	-4.6%	0.2%	4.2
CCc1[nH]nc(C(=O)N2CCCC(N3CCN(c4ccccc4C)CC3)C2)c1C (stereo unspecified)	-3.3%	6.0%	11.3%	nt
CC(/C=C/c1ccccc1)=N\NC(=O)Cn1nc(C)cc1C	-4.4%	15.5%	-1.4%	-1.2
COc1ccc(-c2noc(CCC(=O)NCCc3cccc(C)c3)n2)cc1	-1.6%	0.1%	-7.8%	-3.8

In the list so far, 3 have a CF3 group.
SMILES	Rango-impB inh	Rango release inh	miR-21 reporter	GLA inh pH 4.5
CC(C)c1nn(-c2cc(C(F)(F)F)ccn2)c(=O)o1	0.1%	-6.9%	-0.1%	0.0
O=C(CSc1cccc(C(F)(F)F)c1)Nc1ccc(N2CCOCC2)cc1	7.4%	6.4%	nt	nt
FC(F)(F)c1ccccc1NC(=S)Nc1cccc2cnccc12	-4.1%	-16.6%	0.3%	-10.8

Next part
SMILES	Rango-impB inh	Rango release inh	miR-21 reporter	GLA inh pH 4.5
O=C(NC1=NCCS1)c1ccc(Cl)c(S(=O)(=O)N2CCCCCC2)c1	0.1%	9.7%	-20.7%	2.4
CC1(C)Cc2nc3sc4c(SCC(=O)NCc5ccccc5)ncnc4c3cc2CO1	-3.4%	-11.8%	2.1%	-4.5
COc1ccc(C(=O)Nc2ccc(S(=O)(=O)N3CCOCC3)cc2)cc1[N+](=O)[O-]	3.4%	-6.3%	3.2%	nt
Cc1nc([N+](=O)[O-])c(N2CCOCC2)n1Cc1ccccc1	0.3%	-8.7%	3.3%	-3.7
COCCNC(=O)c1onc(CSc2ccccc2F)c1C(=O)O	0.9%	5.8%	-1.9%	-29.2
O=C(NCCc1ccc(Cl)cc1)c1cccc(NC2=NC3CS(=O)(=O)CC3S2)c1 (stereo unspecified)	4.6%	15.4%	-4.0%	nt
CN(C)CCCn1c(=S)[nH]c2sc3c(c2c1=O)CCCC3	-0.7%	-10.2%	-35.0%	nt
O=C(CCN1C(=O)/C(=C/c2ccccc2Cl)SC1=S)NN1CCOCC1	0.6%	-2.8%	0.6%	nt
COc1cc(/C=C(\C#N)C(=O)N2CCCCC2)ccc1O	?	?	-12.9%	nt
O=C(Nc1ccc(Cl)cc1)NN1CC(=O)N(c2cccc(C(F)(F)F)c2)CC1=O	-0.6%	-6.8%	2.8%	0.0
COc1ccc(NC(=O)C2=NN(c3ccccc3)C(=O)CC2)cn1	51.7µM*	0.1%	nt	nt
CCNC(=S)Nc1ccc(C)c(Cl)c1	-0.5%	15.8%	-5.9%	0.1
O=C(Cc1c(O)c2ccccc2[nH]c1=O)NCc1cccc(F)c1	0.0%	-2.3%	-1.9%	5.5
O=C(NCc1ccco1)c1cccc2c1C(=O)c1ccc(/C=C/c3ccccc3)cc1S2(=O)=O	?	?	nt	nt
C/C(Cn1cnc([N+](=O)[O-])n1)=N\NC(=O)c1ccccc1	0.2%	-9.1%	-53.2%	3.4
COCCCNC(=S)N1CCN(C(=O)c2ccco2)CC1	0.0%	-4.2%	-11.8%	-11.0
COc1ccc(-n2cnnc2SCC(=O)Nc2cc(C(C)(C)C)nn2-c2ccccc2)cc1	0.9%	-8.1%	-0.2%	-0.4
O=[N+]([O-])c1cc(Br)c(O)c(/C=N/Nc2nnnn2-c2cccc3ccccc23)c1	?	?	0.5%	-3.7
Cc1ccc(C(O)Cn2nc(C)cc2C)cc1 (stereo unspecified)	-1.6%	1.4%	nt	nt
CCOc1ccccc1OCC(=O)OCC(=O)Nc1ncc(Cl)cc1Cl	0.3%	-8.3%	3.9%	2.1
O=C(CN1CCC(C(=O)O)CC1)Nc1ccccc1Oc1ccccc1	0.8%	1.1%	-5.7%	1.7
CCOC(=O)c1ccc(N2C(=O)Cc3ccccc3C2=O)cc1	-2.0%	15.5%	-4.4%	nt
Cc1cc(C(=O)O)ccc1-n1c(C)cc(/C=C2\SC(=O)NC2=O)c1C	-1.4%	-24.1%	-15.9%	nt
NC(=O)CC(NC(=O)c1ccccc1)c1ccc(NC2CCC2)c([N+](=O)[O-])c1 (stereo unspecified)	2.8%	-17.5%	-14.1%	-0.6
Cc1[nH]nc2ncc(C(=O)c3cc(F)ccc3O)cc12	0.9%	1.2%	-6.1%	-3.4
SMILES	Rango-impB inh	Rango release inh	miR-21 reporter	GLA inh pH 4.5
Cc1ccccc1NC(=O)c1cccc(S(=O)(=O)N2CCCCC2)c1	-0.5%	3.7%	-5.7%	nt
CCCN(CCC)C(=O)CC(c1ccccc1)c1ccc(C)cc1O (stereo unspecified)	-1.5%	2.6%	10.8%	-4.7
CC1CCCCN1C(=O)C12CCC(C)(/C(=N/O)C1)C2(C)C (stereo unspecified)	-2.8%	-1.7%	-0.7%	2.3
O=C(Cc1ccc(F)cc1)OCC(=O)N1CCN(S(=O)(=O)c2ccc(Cl)cc2)CC1	0.7%	35.0%	nt	nt
O=C(Cc1c(F)cccc1Cl)N1CCCC1	2.9%	-5.1%	-4.6%	-3.7
CC(C(=O)N(C)C1CCS(=O)(=O)C1)N1C(=O)/C(=C/c2ccc(F)cc2)SC1=S (stereo unspecified)	0.9%	-2.2%	8.6%	nt
CS(=O)(=O)N(CC(=O)Nc1ccccc1C(=O)N1CCOCC1)c1cccc([N+](=O)[O-])c1	1.7%	15.4%	-0.6%	nt
Cc1ccccc1N(C(=O)Cc1cccs1)C(C(=O)NCC1CCCO1)c1cccnc1 (stereo unspecified)	-0.5%	-2.8%	-2.4%	1.8
Cc1ccc(S(=O)(=O)N2CCCCC2C)cc1[N+](=O)[O-] (stereo unspecified)	?	20.1%	-7.0%	nt

Taken from the results shown for reference:
SMILES	Rango-impB inh	Rango release inh	miR-21 reporter	GLA inh pH 4.5
O=C(Cc1ccc(F)cc1)OCC(=O)N1CCN(S(=O)(=O)c2ccc(Cl)cc2)CC1	0.7%	35.0%	nt	nt
O=C(Cc1c(F)cccc1Cl)N1CCCC1	2.9%	-5.1%	-4.6%	-3.7
